Sfp inh = qHTS Assay for Inhibitors of Bacillus subtilis Sfp phosphopantetheinyl transferase (PPTase) | 4'-phosphopantetheinyl transferase ffp (Bacillus subtilis), Q9F4F7 | Biochemical Sfp PPTase activity, qHTS | Potency, µM, inactives show max response, negative = inhibition, usual class: inhibitors | 310,000 compounds, 3.5% hits | AID 1490, 2009; active means well fitted inhibition curve with a large enough effect; inconclusive means small, poorly fitted or top-dose-only effect, or another doubt; inactive means no such curve, though single readings can be large or run the other way;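 further: the enzyme is Sfp with the accession as filed and its product quenches rhodamine fluorescence; potency means the concentration at half of the fitted maximal effect; 0% = enzyme reaction without inhibitor and -100% = no enzyme wells; top concentration of the series not given in the record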
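Step 1, compound plus 15 nM Sfp-PPTase, 15 min, room temperature. Step 2, add rhodamine-CoA (5 uM) and BHQ-2-YbbR (12.5 uM). Step 3, read 525/598 nm fluorescence at 0 and 30 min.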
ClpP mod = qHTS Assay for Activators of ClpP | ATP-dependent Clp protease proteolytic subunit (Bacillus subtilis (strain 168)), P80244 | purified B. subtilis ClpP, FRET peptide cleavage, 20 min | 340,000 compounds, 1.9% hits | Potency, µM (series often up to 57.5 µM), for the others: at the highest dose activity change, negative = active; active = well fitted falling curve with a large enough effect; inconclusive = small, poorly fitted or top-dose-only effect; inactive = no such curve, though single readings can be large or run the other way; further: potency means the concentration at half of the fitted maximal effect; the source files actives as falling curves though it sought activators and does not explain the sign; nearly all actives have a fitted effect of over 65% in size; many hits overshoot -100%
Target sequence (P80244 whole entry, looked up): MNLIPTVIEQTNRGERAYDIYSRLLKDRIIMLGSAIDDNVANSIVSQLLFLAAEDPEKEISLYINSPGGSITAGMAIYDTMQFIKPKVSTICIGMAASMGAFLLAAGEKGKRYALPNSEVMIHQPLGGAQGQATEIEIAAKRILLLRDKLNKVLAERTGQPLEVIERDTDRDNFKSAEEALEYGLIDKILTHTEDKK
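Buffer: 100 mM Tris/HCl pH8, 100 mM KCl, 0.05% low protease BSA, 2.5% glycerol, 0.01% Tween-20. ClpP 10 microg/mL final; 20 min RT; delta FRET normalized to ADEP and DMSO controls.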
Menin-MLL FL inh = qHTS Assay for Inhibitors Targeting the Menin-MLL Interaction in MLL Related Leukemias: Competition With Fluorescein Labeled MLL-derived Peptide | 290,000 tested, under 10 active | AID 1766, 2009 | FP activity change, % at 61.4 µM | Fluorescence polarization, fluorescein-MLL peptide displacement from menin; inconclusive = falling polarisation curve, or a change in total fluorescence; inactive = total fluorescence flat and polarisation flat or rising; no compound was filed as active; the % refers to the polarisation; negative = inhibition;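 further: % of control where 0% means no effect; inhibitors lower the polarisation; unlabelled MLL peptide was the positive control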
D2 agonist = Beta-Arrestin HTS for Positive Allosteric Modulators of the Human D2 Dopamine Receptor: Agonists; D(2) dopamine receptor (Homo sapiens), P14416; DiscoveRx PathHunter D2 beta-arrestin, luminescence, 90 min; 100% = 57 uM dopamine signal; activation, % (concentration not given with the values); 360,000 compounds, 0.084% hits; in the data active = activation above about 40%; inconclusive = about 15% to 40%; inactive = below about 15%; further: the text of the record calls up to 30% inactive
Target sequence (P14416 whole entry, looked up): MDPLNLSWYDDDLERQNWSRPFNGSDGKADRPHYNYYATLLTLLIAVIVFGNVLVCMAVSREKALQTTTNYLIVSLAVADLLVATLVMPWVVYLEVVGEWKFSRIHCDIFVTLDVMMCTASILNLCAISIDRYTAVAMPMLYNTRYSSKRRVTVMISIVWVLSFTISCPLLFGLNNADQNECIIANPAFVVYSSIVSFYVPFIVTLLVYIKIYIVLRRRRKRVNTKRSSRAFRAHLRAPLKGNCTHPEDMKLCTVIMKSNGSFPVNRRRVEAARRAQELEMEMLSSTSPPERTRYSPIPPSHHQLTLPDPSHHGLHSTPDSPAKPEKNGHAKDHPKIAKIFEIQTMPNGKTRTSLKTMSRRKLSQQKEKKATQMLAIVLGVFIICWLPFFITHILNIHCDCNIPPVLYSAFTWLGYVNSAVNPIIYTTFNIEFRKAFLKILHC
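Agonist mode: compounds alone added to overnight-plated D2 PathHunter cells for 90 min at 37 C, with 57 uM final dopamine (EC100) defining full response. Beta-arrestin recruitment detected by chemiluminescent reagent, read after 1 h at ambient temperature.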
gsp antagonist = qHTS for Antagonists of gsp, the Etiologic Mutation Responsible for Fibrous Dysplasia/McCune-Albright Syndrome: qHTS | AID 624288, 2012 | Potency, µM (titrated, usually from 76.9 µM), for inactives: at the highest dose activity change, negative = inhibition, most hits filed as inhibitors | gsp-mutant cells, cAMP HTRF, 30 min; control for the full effect not named in the record | 340,000 compounds, 0.4% hits; active = falling curve of any shape with a large fitted effect; inconclusive = falling curve, mostly with a smaller effect; inactive = flat or rising curve; cell line not stated here;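 further: intracellular cAMP measured with PDE inhibitor Ro 20-1724 present during compound exposure; potency means the concentration at half of the fitted maximal effect; on the % scale 0 is the no-effect control and ±100 the full control effect; nearly all actives have a fitted effect of over 65% in size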
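HTRF cAMP measurement after 30 min RT detection following 30 min, 37C compound treatment alongside […] (added as 300 uM solution) in G418-selected cells seeded at 2000/well and grown 16–24 h.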
PINK1 modulator = A Quantitative High throughput Screen to Identify Chemical Modulators of PINK1 Expression; Potency, µM (highest dose often 76.6 µM), for the others: at the top dose activation (PINK1 increase), actives largely listed as activators; 410,000 compounds, 0.2% hits; PINK1 immunofluorescence, high-content cytometry, 24 h; active = well fitted activation curve with a large enough effect; inconclusive = small, poorly fitted or top-dose-only effect; inactive = flat fitted curve, though single readings scatter; cell line not stated here;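 further: potency means the concentration at half of the fitted maximal effect; % of control where 0% means no effect; nearly all actives have a fitted effect of over 65% in size; a mitochondrial uncoupler was the plate control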
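Cells are seeded, rested 12 hours, then given compound at five concentrations or DMSO for 24 hours. After fixation, blocking and antibody staining, PINK1 amount and mitochondrial localization are scored; CCCP serves as control.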
gsp agonist = qHTS for Agonist of gsp, the Etiologic Mutation Responsible for Fibrous Dysplasia/McCune-Albright Syndrome: qHTS; gsp mutant cells, cAMP HTRF, 30 min; control for the full effect not named in the record; Potency, µM (highest dose often 76.9 µM), without a hit: at the highest dose activation (cAMP increase), most hits filed as activators; 340,000 compounds, 0.13% hits; active = well fitted activation curve with a large enough effect; inconclusive = small, poorly fitted or top-dose-only effect, or another doubt; inactive = no such curve, though single readings can be large or run the other way; cell line not stated here;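 further: phosphodiesterase inhibitor Ro 20-1724 added with compounds to block cAMP breakdown; potency means the concentration at half of the fitted maximal effect; nearly all actives have a fitted effect of over 60% in size; about a fifth of the inactives were tested at one dose only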
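Cells stably selected in G418 were plated at 2000/well, grown 16-24 hr, then given compounds in DMSO with the PDE inhibitor […] (300 uM solution added) for 30 min at 37C; cAMP was read by HTRF.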
* hit, by the source's call; ? = inconclusive; . = not tested or not shown; [ ] = remark or other dose. This is a subset; rates above refer to the full screens.

SMILES	Sfp inh	ClpP mod	Menin-MLL FL inh	D2 agonist	gsp antagonist	PINK1 modulator	gsp agonist
Oc1cc2c(cc1CN1CCN(c3ccc(F)cc3)CC1)OCO2	7.6%	.	2.8	-0.8	-23.5%	2.4%	15.8%[15.4 µM]
COc1ccc(CCNC2CCCCCC2)cc1	23.4%	1.6%	-5.1	-4.0	8.2%	0.9%	-0.3%[15.4 µM]
N#CC(C#N)=C(C#N)c1ccc(Nc2ccccc2)cc1	?	.	8.6	1.0	-27.0%	5.1%	-25.2%
CCOC(=O)CSc1nn(-c2ccccc2)c(=S)s1	-7.8%	.	-3.7	-2.7	-10.4%	-1.9%	?
CN1CCN(Cc2ccccc2C(F)(F)F)CC1	-15.5%	-0.1%	-2.2	-1.8	-1.0%	-0.9%	-64.8%[inhibitor]
COc1ccc(C(CN(C)C)C2(O)CCCCC2)cc1 (configuration not stated)	12.3%	-2.5%	-0.5	-2.5	-1.9%	-0.5%	.
CCCCCCNC(=O)N[C@@H](Cc1ccc(O)cc1)C(=O)NCCC[C@H]1CN2C(=NC[C@H]2C)N1CC1CCC1	8.7%	-0.1%	1.4	-3.0	-0.5%	0.3%	.
CC(NC1=NCCS1)c1ccccc1 (configuration not stated)	16.5%	1.2%	-3.0	-1.8	8.5%	1.8%	0.3%
CCN1CCN(Cc2cc(Br)cc(OC)c2O)CC1	10.0%	0.5%	1.9	-0.7	12.3%	-2.6%[38.3 µM]	10.2%
Cn1c(=O)oc(=O)c2ccccc21	.	.	.	-5.3	6.9%	0.3%	22.8%
O=C(COc1ccc2c3c(c(=O)oc2c1)CCC3)N1C[C@H]2C[C@@H](C1)c1cccc(=O)n1C2	5.1%	4.7%	-9.7	-2.7	3.9%	0.2%	.
O[C@H]1C2CCC1C(N1CCCCC1)CC2 (some centres not stated)	11.7%	-4.4%	1.6	-9.3	5.7%	-1.5%	-62.5%[inhibitor]
CCCN1CCC2(CC1)NC(CO)(CO)CO2	16.0%	1.5%	-9.8	-1.9	11.2%	1.5%	-22.1%
COC(=O)C1=C(c2ccc(F)cc2OCc2ccccc2)C[C@@H]2CC[C@H]1N2C(=O)NCCN1CCOCC1	.	-2.1%	.	-1.3	0.5%	-1.8%	12.3%
O=C(N/N=C/c1c(O)n(C2CCCCC2)c(=S)[nH]c1=O)c1ccccc1O	-13.4%	-3.1%	3.7	-3.3	-0.1%	3.8%	3.8%
Nc1ccc(Br)cc1C(=O)c1ccccc1	6.6%	-0.6%	-0.4	1.3	-16.2%	2.8%	?
CCCCCn1c(SCCCC)nc2c1c(=O)[nH]c(=O)n2C	?	1.1%	3.3	2.6	4.4%	0.3%	9.6%
O=C1CCCC2C3CC(CN12)C1CCCCN1C3 (configuration not stated)	-8.0%	.	-8.6	.	.	1.2%	.
COC(=O)C1=C(c2ccc(OC)c(OC)c2)C[C@@H]2CC[C@H]1N2C(=O)N1CCc2cc(OC)c(OC)cc2C1	.	0.4%	.	-7.2	0.3%	6.0%	2.7%
COC(=O)C1=C(c2cccc(OCc3ccccc3)c2)C[C@@H]2CC[C@H]1N2C(=O)NCc1ccc2[nH]ccc2c1	.	-1.9%	.	-2.4	-4.0%	0.9%	-22.3%
CC1OC(OC2C(O)CC(OC3C(O)CC(OC4CCC5(C)C(CCC6C5CCC5(C)C(C7=CC(=O)OC7)C(O)CC65O)C4)OC3C)OC2C)CC(O)C1O (configuration not stated)	.	0.5%	.	-3.2	10.6%	-1.7%	-9.6%
Cn1c(O)c(C2=NNC(c3ccc(Cl)cc3)C2)c(=O)n(C)c1=O (configuration not stated)	1.2%	.	-1.9	-1.4	3.2%	1.6%	12.7%[15.4 µM]
C=C(C)CSc1nnc([C@@H](N)Cc2ccccc2)o1	-17.3%	-1.8%	-1.4	-4.8	-3.7%	-1.2%	5.2%[15.4 µM]
O=C(C[N+]12CCC(CC1)C(C(O)(c1ccccc1)c1ccccc1)C2)c1ccc(Br)cc1 (configuration not stated)	2.7%	-1.8%	-6.5	-6.5	-0.9%	0.5%	-19.4%
CNC(=O)Oc1cccc(-c2cn3cc(OC(=O)NC)ccc3n2)c1	12.2%	14.1µM*	-6.2	0.6	1.8%	0.7%	8.1%
Further results.
SMILES	Sfp inh	ClpP mod	Menin-MLL FL inh	D2 agonist	gsp antagonist	PINK1 modulator	gsp agonist
COc1cccc(C)c1NC1=NCCO1	.	0.3%	.	-0.1	.	2.2%	?
CC1CC(C)CN(C(=O)COC(=O)c2cn(C)c3ccccc23)C1 (configuration not stated)	.	3.7%	.	-0.8	6.2%	0.5%	-4.3%
CCCCCCCCN=Cc1c(O)[nH]c(=O)[nH]c1=O	-9.0%	.	-0.7	5.0	7.3%	9.0%	-1.8%[15.4 µM]
CC(C)(Cl)[N+](=O)[O-]	.	-1.2%	.	2.3	-3.5%	1.6%	.
COC(=O)C1=C(c2ccc(F)cc2F)C[C@@H]2CC[C@H]1N2C(=O)N1CCCC1	.	1.7%	.	2.2	0.0%	0.2%	-8.4%
CC(C)c1ccc(C(O)P(=O)(OCc2ccccc2)c2ccc(N(C)C)cc2)cc1 (configuration not stated)	6.2%	-0.4%	3.4	-7.0	?	3.8%	-19.6%
CCCCCCOc1ccc(CN2CCN(C)CC2)cc1	-0.2%	0.6%	5.4	-2.5	13.4%	-1.1%[38.3 µM]	6.0%
CCOc1ccc(-n2c(-c3cccs3)nc3ccccc3c2=O)cc1	3.4%	.	-0.5	-0.7	-10.2%	1.2%	-10.1%
COc1ccc(NC(=O)c2cn(CCC#N)nc2-c2cccc(Br)c2)cc1	4.0%	-0.4%	2.4	4.5	-10.3%	1.4%	-3.0%
COc1ccc(-[n+]2c(-c3ccccc3)cc(-c3ccc(C)cc3)cc2-c2ccccc2)cc1	-6.8%	.	-3.6	0.6	-11.0%	?	?
C[C@@]12CC(c3ccoc3)OC(=O)C1CC[C@@]1(C)C2C2C=C[C@@]1(O)C(=O)O2 (some centres not stated)	15.0%	.	2.4	.	.	0.5%	.
O=C(Nc1ccc(Cl)cc1C(=O)c1ccccc1Cl)c1ccco1	19.3%	0.4%	1.5	-0.6	4.3%	?	-19.2%
CCOc1cc2c(cc1OCC)-n1cccc1C(c1cccc(OCC)c1O)NC2 (configuration not stated)	-7.6%	.	-0.3	-0.3	-1.1%	4.7%	0.3%
CC(=O)N1N=C(c2cccnc2)OC1c1ccccc1Cl (configuration not stated)	-2.6%	1.0%	4.7	-2.8	-7.7%	0.4%	-2.2%[15.4 µM]
CC1CN=C(Nc2cccc3ccccc23)S1 (configuration not stated)	18.9%	?	0.5	5.9	-1.2%	-0.1%	19.1%
COc1ccc2c3c1OC1C(=O)CC[C@@]4(O)[C@@H](C2)N(C)CC[C@]314 (some centres not stated)	.	0.6%	.	2.0	4.5%	0.2%	.
Cc1ccsc1C(=O)C1CCCN(Cc2cccc(OCCO)c2)C1 (configuration not stated)	12.4%	.	-1.1	-0.8	6.8%	-0.3%	-36.2%[inhibitor]
O=C(N1CCCCCC1)N1CC1	.	-0.6%	.	-1.9	10.0%	0.5%	6.8%[15.4 µM]
COC(=O)C1=C(c2ccc(F)cc2F)C[C@@H]2CC[C@H]1N2C(=O)N1CCC(C)CC1	.	2.3%	.	1.6	-11.2%	0.0%	?
COc1cccc(-n2c(-c3ccoc3)nc3ccccc3c2=O)c1	15.7%	1.4%	-0.2	-0.3	-2.6%	-4.6%[38.3 µM]	9.9%
Clc1ccc(Cn2ccnc2)cn1	7.4%	-1.6%	2.0	-3.8	0.6%	-1.3%	15.6%[15.4 µM]
Cc1cccc(OCC(=O)N2CCN(Cc3cccnc3)CC2)c1	10.2%	28.2µM*	8.1	-2.6	-5.3%	-0.8%	-4.0%[15.4 µM]
CC(=O)Nc1ccc(OC(=O)N(C)C)cc1	4.2%	-0.1%	1.3	0.5	8.5%	1.5%	?
COc1ccc(NC(=S)NCCN2CCOCC2)cc1	10.5%	0.0%	-0.3	5.9	-4.8%	1.6%	-53.3%[inhibitor]
CCOc1ccc(NC(=O)c2c(C)nn(Cc3ccccc3)c2Cl)cc1	-3.8%	0.4%	-1.2	7.5	-0.9%	11.1%	4.7%[15.4 µM]
Remaining list, next part
SMILES	Sfp inh	ClpP mod	Menin-MLL FL inh	D2 agonist	gsp antagonist	PINK1 modulator	gsp agonist
CSCCC(c1nnnn1Cc1ccccc1)N1CCC2(CC1)C(=O)NCN2c1ccccc1 (configuration not stated)	.	-0.2%	.	5.2	.	-1.0%	.
CCC(C)(C)NC(=O)Cn1c(=O)oc2cc(S(=O)(=O)N3CC(C)CC(C)C3)ccc21 (configuration not stated)	29.9%	-0.3%	-2.4	-3.4	5.4%	5.4%	?
Cc1cc(C)cc(C(=O)N(CCc2ccccc2)C2=CC3CCC(C2)N3C)c1 (configuration not stated)	?	0.3%	-2.0	0.2	-3.4%	-1.7%	-17.5%
COc1ccc(N2C(=O)/C(=C/C=C/c3ccccc3[N+](=O)[O-])C(=O)NC2=S)cc1	35.5µM*	.	?	-2.2	-5.6%	-1.3%	-4.5%[15.4 µM]
CN1CCN(c2cn[nH]c(=O)c2Cl)CC1	8.1%	.	-1.0	-1.1	2.8%	-1.4%	-0.5%
COC(=O)C(O)(c1ccc(N(C)C(=O)OC(C)C)cc1)C(F)(F)F (configuration not stated)	18.7%	-3.0%	2.0	-0.6	-19.2%	9.1%[38.3 µM]	-3.9%
CN(C)c1ccc(/C=C2/C(=O)NC(=O)N(CCc3ccc(F)cc3)C2=O)cc1	-22.7%	-0.3%	24.1	-0.8	16.3%	-0.6%	8.6%
CCOC(=O)CNC(=O)N1Cc2ccccc2-n2nncc2C1	.	-2.6%	.	.	.	0.0%	-64.1%[inhibitor]
O=C(NP(=O)(N1CC1)N1CC1)c1cc(I)ccc1I	.	-2.4%	.	-1.3	1.5%	-5.2%	23.7%
CN(C)C1(CNC(=O)Cc2ccccc2F)CCCCC1	13.6%	.	9.0	0.3	6.6%	2.2%	-0.6%
Oc1ccc(Br)cc1CN1CCN(c2ccccc2)CC1	14.9%	-1.6%	3.0	0.3	6.9%	51.6%[38.3 µM]	29.7%
CC(=O)OC1CCC2(C)C3CCC4(C)C(OC(C)=O)CCC4C3C(C)C2(O)C1 (configuration not stated)	.	.	.	-0.8	-10.1%	3.4%	-41.9%[inhibitor]

Screens from PubChem.
